Screening results deposited in PubChem by National Center for Advancing Translational Sciences (NCATS).
miR-21 FLuc = qHTS Assay for Modulators of miRNAs and/orActivators of miR-21 | 340,000 tested, under 10 active | HeLa miR-21 FLuc reporter, luciferase, 48 h | Potency, µM (top dose mostly 38.3 µM), without a hit: at the highest dose reporter change, positive = more light; active = well fitted rising curve with a large enough effect; inconclusive = small, poorly fitted or top-dose-only effect; inactive = no such curve, though single readings can be large or run the other way;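 note: % of control where 0% means no effect; miR-21 action dims this reporter so a rising signal means less miR-21 action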
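HeLa cells endogenously expressing miR-21, stably carrying CMV-driven firefly luciferase with a downstream miR-21 binding site, 2000 cells/well. Titrations up to approximately 40 uM, 48 hours; luciferase luminescence read.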
Rango release inh = qHTS Assay for Inhibitors of RanGTP induced Rango (Ran-regulated importin-beta cargo) - Importin beta complex dissociation; Biochemical FRET Rango-importin beta, RanGTP-induced dissociation; Potency, µM (titrated, usually from 46.1 µM), for inactives: at the highest dose activity change, negative = inhibition; 340,000 compounds, 0.071% hits; AID 540253, 2011; active means falling FRET ratio curve, often poorly fitted, with flat reads before Ran was added; inconclusive means other falling curves, or compound fluorescence or quenching; inactive means flat or rising ratio curve;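 note: potency is the fitted concentration of half-maximal effect; % of control where 0% means no effect; nearly all actives have a fitted effect of over 45% in size; -100% = wells without RanGTP and RCC1; the record marks most hits as doubtful in a second field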
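Rango (0.1 uM)–importin beta (0.25 uM) complex; RanGTP-RCC1 trigger; 45 min RT; CFP/YFP FRET read.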
Rango-impB inh = qHTS Assay for Inhibitors of Rango (Ran-regulated importin-beta cargo) - Importin beta complex formation. Importin subunit beta-1 (Homo sapiens), Q14974. Rango CFP/YFP FRET sensor + importin beta, 45 min. Potency, µM (series often up to 92.2 µM), for the others: top-dose inhibition of complex formation. 340,000 compounds, 0.031% hits. AID 540263, 2011; active = rising FRET ratio curve, often small or poorly fitted; inconclusive = mostly compound fluorescence or quenching in the first reads; inactive = flat curves in all reads;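 note: potency is the fitted concentration of half-maximal effect; 0% = DMSO wells and 100% = buffer wells lacking importin beta; nearly all actives have a fitted effect of over 15% in size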
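FRET biosensor Rango (snurportin 1 IBB between N-terminal EYFP and C-terminal Cerulean), 50 nM in PBS/1 mM DTT/0.02% Tween-20/0.1% BSA, preincubated 5 min RT with compound; 0.125 microM importin beta added, 45 min RT, CFP/YFP FRET ratio read.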
GLA inh pH 4.5 = qHTS Assay for Inhibitors of Human alpha-Galactosidase at pH 4.5; purified enzyme, 4-MU-alpha-Gal fluorescence, pH 4.5; 230,000 tested, under 10 active; Alpha-galactosidase A (Homo sapiens), P06280; activity change, negative = inhibition, % at 105 µM; inconclusive = small, poorly fitted or top-dose-only inhibition, or a rising curve; inactive = flat fitted curve, though single readings scatter; no compound was filed as active;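 note: 0% = full activity with enzyme and -100% = basal without enzyme; dose as in the result columns while the protocol names 77 µM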
Target sequence (P06280 whole entry, looked up): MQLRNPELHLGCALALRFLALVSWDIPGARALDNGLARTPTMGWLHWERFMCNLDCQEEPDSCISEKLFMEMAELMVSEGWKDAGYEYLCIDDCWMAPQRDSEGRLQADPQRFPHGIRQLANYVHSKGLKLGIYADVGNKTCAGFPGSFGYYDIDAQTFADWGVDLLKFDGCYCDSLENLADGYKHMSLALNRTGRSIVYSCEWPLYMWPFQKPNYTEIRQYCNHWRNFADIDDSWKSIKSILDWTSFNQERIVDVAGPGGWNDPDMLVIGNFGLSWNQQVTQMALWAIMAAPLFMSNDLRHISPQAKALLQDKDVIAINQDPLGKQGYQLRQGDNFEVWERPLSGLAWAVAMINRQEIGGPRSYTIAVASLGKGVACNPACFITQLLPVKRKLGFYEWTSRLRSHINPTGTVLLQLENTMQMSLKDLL
* = called active by the depositor; ? = inconclusive; . = no result given; & = joins results of further samples.

SMILES | miR-21 FLuc | Rango release inh | Rango-impB inh | GLA inh pH 4.5
CCCC[C@@H]1C[C@H]1[C@@H](NC(=O)c1ccco1)c1ccccc1C(F)(F)F | . | -4% | -2.7% | .
COC(=O)CC1NCCNC1=O (stereo unspecified) | -2% | -4% | 2.2% | -7
COc1ccccc1CNC(=O)C1CCN(S(=O)(=O)c2ccc3c(c2)OCCCO3)CC1 | -3% | -6% | -1.3% | 1
CC(C)c1nnc(NC(=O)c2nc(S(=O)(=O)Cc3ccccc3F)ncc2Cl)s1 | ? | 1% | 3.9% | .
Cc1ccc(/C(O)=C2/C(=O)C(=O)N(c3ccccn3)C2c2ccc([N+](=O)[O-])cc2)cc1 (stereo unspecified) | -5% | 3% | -2.1% | .
COc1ccccc1CCC(=O)OCC(=O)Nc1cc(S(=O)(=O)N2CCOCC2)ccc1C | . | 13% | -1.8% | .
COc1ccc(C(=O)N2CCNC(=O)C2CC(=O)Nc2cc(Cl)ccc2OC)cc1 (stereo unspecified) | -7% | -19% | -1.4% | .
O=C(NC1CCS(=O)(=O)C1)c1cn(-c2ccccc2)nc1-c1ccccc1 (stereo unspecified) | -11% | 2% | -1.2% | 7
O=[N+]([O-])c1ccc(C(O)CN2CCOCC2)cc1 (stereo unspecified) | -2% | -15% | -2.9% | .
CCc1cc2c(Nc3ccccc3O)nc(C)nc2s1 | 14% | 7% | -1.4% | .
CC(=O)Nc1ccc(Nc2ncnc3ccccc23)cc1 | -26% | . | . | 3
N#CNC(N)=Nc1cccc(Cl)c1 | -5% | -7% | 0.5% | -21
COc1ccc(CCNC(=O)COC(=O)CSc2ccc([N+](=O)[O-])cc2)cc1OC | . | -8% | 3.7% | .
Cc1[nH]c(=O)[nH]c(=O)c1NC(=O)c1ccc(OC(C)C)cc1 | 0% | 12% | -1.7% | 4
COc1ccc(Br)cc1CN(C)CC(=O)NCc1ccc(F)cc1 | -6% | 1% | 2.4% | .
COc1ccc(-c2noc(CN3CCOCC3)n2)cc1OC | -20% | -3% | -3.6% | ?
CC(=O)Oc1c(S(=O)(=O)c2ccc(C)cc2)c(C)nn1C(C)(C)C | 4% | -18% | -0.8% | 4
COc1ccc(/C=C/c2ccc3cccc(O)c3n2)cc1Br | -15% | 4% | -2.6% | .
Cc1ccc(S(=O)(=O)N2C[C@@H]3[C@H]4CC[C@H](C4)[C@@H]3[C@@H](C)[C@@H]2c2cn(Cc3ccccc3)c3ncccc23)cc1 | . | 1% | -4.1% | .
CCOC(=O)C1=C(COC(=O)C(CC)c2ccccc2)NC(=O)NC1C (stereo unspecified) | . | -3% | -3.1% | .
COc1c(NC=O)c2c(c([N+](=O)[O-])c1OC)C(=O)OC2 | . | -1% | -1.5% | .
Cn1c(=O)c(C(=O)NC2CCCCCCC2)c(O)c2ccccc21 | -4% | 4% | 4.4% | 4
O=C(Nc1ccccc1)c1cc(Cl)nc2ccccc12 | -7% | -17% | ? | 10
CCCc1c(C(=O)N/N=C(\C)CCc2ccc(OC)cc2)nnn1-c1nonc1N | -2% | 30% | -2.7% | .
Cc1cccc(C)c1NC(=O)c1cnn(-c2ccccc2)c1C | -1% | -3% | 1.9% | .
(further entries)
SMILES | miR-21 FLuc | Rango release inh | Rango-impB inh | GLA inh pH 4.5
CC1=C(C(=O)OC2CCCCC2)C(c2cccnc2)n2nnnc2N1 (stereo unspecified) | -16% | -10% | -1.3% | 11
C=C(C)Cn1c(SCC(=O)N/N=C/c2c(O)ccc3ccccc23)nc2ccccc2c1=O | 4% | -5% | ? | -7
CN1CCN(S(=O)(=O)c2ccc(Br)c3nsnc23)CC1 | 0% | -6% | 0.4% | 6
CCOC(=O)c1c(/N=C/C2=C(O)CC(C)(C)CC2=O)sc2c1CCCC2 | -3% | ? | ? | -3
Cc1cccc(OCCCC(=O)NC2CCCCC2)c1 | -6% | 7% | -2.1% | .
CCN(CC)N=Nc1ccc(C(=O)O)cc1 | -17% | -4% | 6.8% | 2
O=C(Cc1c(F)cccc1Cl)Nc1cc(S(=O)(=O)N2CCCCC2)ccc1N1CCOCC1 | -4% | 10% | -3.7% | -18
CCOc1ccc(OCC)c(NC(=O)C2CCN(S(=O)(=O)c3cccc4nonc34)CC2)c1 | -3% | 16% | 0.6% | -5
CCOC(=O)N/N=C/c1cccnc1 | -1% | -8% | -3.3% | 7
CCOc1ccccc1N1CCN(C(=O)CC(C)C)CC1 | 0% | 6% | 3.7% | 1
COc1ccc(CCNC(=O)CSc2ccc3nnc(CCNC(=O)c4ccccc4)n3n2)cc1OC | 0% | -9% | -0.4% | .
CC(=O)NN1C(=O)c2ccccc2NC1c1ccc([N+](=O)[O-])o1 (stereo unspecified) | 0% | -1% | -0.4% | 0
O=[N+]([O-])c1ccc(-n2cccn2)c(-c2nn[nH]n2)c1 | 0% | -3% | 4.6% | -3
COc1ccc(S(=O)(=O)N(C)CC(=O)NCc2cccnc2)cc1OC | -3% | -11% | 4.2% | 2
COc1cccc(NC(=S)N(CCC(C)C)C2CCN(C(C)=O)CC2)c1 | -18% | -6% | ? | .
Cc1cc(C(F)(F)F)nn1CC(=O)N1CCCCC1C (stereo unspecified) | -1% | 10% | -0.2% | 6
O=C(CCC(=O)N(CC(=O)NC1CCCCC1)Cc1ccc(F)cc1)Nc1nccs1 | 1% | -4% | -1.7% | .
CN(CCc1ccccn1)C(=O)c1ccc(OC2CCN(CCc3ccccc3)CC2)cc1 | -12% | -9% | 9.0% | .
COc1cc(-c2nnc(COC(=O)c3c4c(nc5ccccc35)CCCC4)o2)cc(OC)c1OC | -12% | . | . | -1
C=CCN=C1S/C(=C\c2ccc(Cl)cc2)C(=O)N1CC=C | -11% | -7% | -1.4% | -3
O=C(N/N=C/c1ccccc1C(F)(F)F)c1ccc2nc[nH]c2c1 | -44% | 0% | 0.0% | .
C/C(=C\c1ccccc1)C(=O)NCc1ccco1 | -35% | -15% | 0.3% | -7
CCOC(=O)c1c(SCCN2CCCCC2)n(-c2ccccc2)c(=S)n(-c2ccccc2)c1=O | . | 2% | 4.3% | .
CCCN(CC1CC1)C(=S)Nc1ccc(C(C)=O)cc1 | -18% | -11% | 3.2% | 3
Cc1ccccc1Cn1cccc1/C=C1/C(=N)N2C=CSC2=NC1=O | 7% | ? | ? | -5
Going on with the list:
SMILES | miR-21 FLuc | Rango release inh | Rango-impB inh | GLA inh pH 4.5
O=C(Nc1cccc2[nH]ncc12)c1ccc(F)cc1 | 12% | -19% | 2.6% | -12
COCCN1CC(=O)N(c2cccc(C)c2C)C(c2ccc(Cl)cc2)C1=O (stereo unspecified) | -5% | 1% | 0.0% | -2
CCOc1cc(/C=N/Nc2nc(-c3cccc(S(=O)(=O)N4CCCC4)c3)cs2)ccc1O | 9% | -4% | 4.1% | -20
CCC(SC1=N/C(=C/c2ccccc2OC)C(=O)N1c1ccccc1)C(=O)Nc1cc(C)on1 (stereo unspecified) | -3% | ? | ? | -8
Cc1ccnc(NS(=O)(=O)c2ccc3c(c2)CCO3)c1 | -1% | . | . | 3
COc1ccccc1NC(=O)C1=C(C)Nc2nnnn2C1c1ccccc1OC (stereo unspecified) | -4% | -13% | 1.0% | 5
NS(=O)(=O)c1cccc(NC(=O)CSc2nnc(-c3ccccc3F)n2C2CC2)c1 | 1% | -1% | 5.0% | 2
O=S1(=O)c2c(F)cccc2OC(COc2ccccc2)CN1CCc1ccc(F)cc1 (stereo unspecified) | . | 2% | -2.8% | .
COCCNc1nnc(SCC(=O)NC2CCCCC2)s1 | . | -4% | -1.5% | .
O=C(NN=Cc1ccccc1C(=O)O)c1ccc(NS(=O)(=O)c2cccs2)cc1 | . | 0% | -0.4% | .
O=C(Nc1cccc([N+](=O)[O-])c1)Nc1ccc(Cl)cn1 | -6% | 15% | 0.2% | -1
O=C(C1CCCN(c2ncccn2)C1)N1CCc2ccccc21 (stereo unspecified) | -13% | -2% | 1.1% | 3
CCCN(CCC)CCCNC(=O)c1ccc2c(Cl)c3c(nc2c1)CCC3 | -26% | 3% | ? | .
NS(=O)(=O)c1ccc(CNC(=O)C2(c3ccc(Cl)cc3)CC2)cc1 | -8% | -2% | 6.9% | -10
CCc1[nH]nc(C(=O)N2CCCC(Nc3ccc(C(C)C)cc3)C2)c1C (stereo unspecified) | 12% | 0% | -0.6% | .
COc1ccc(CC(=O)N2CCN=C2SC)cc1 | -11% | 16% | 0.8% | 1
Cc1ccc(-c2ccc(/C=C(\C#N)C(=O)Nc3cc(C)nn3-c3ccccc3)o2)cc1 | -4% | . | . | -4
N#CCCn1cnc2c(=S)nc[nH]c21 | -2% | -4% | -2.6% | 4
Cc1nc2nc(Cc3ccccc3)nn2c(C)c1Cl | -21% | 13% | 0.5% | -5
N#Cc1ccc(COC(=O)c2cnc(Cl)c(Cl)c2)cc1 | 6% | 31% | 0.9% | .
Cc1cccn2c(CNCCSc3nccn3C)c(C(=O)N3CCCCC3)nc12 | -2% | 8% | -1.2% | -3
CC(C)Oc1ccc(CCc2n[nH]c(=S)n2Cc2ccccc2)cc1 | 11% | 1% | 2.2% | -3
Cc1cc(C)cc(C(=O)NC(CC(N)=O)c2ccc(N3CCC(Cc4ccccc4)CC3)c([N+](=O)[O-])c2)c1 (stereo unspecified) | 0% | 0% | -0.1% | .
O=S(=O)(c1ccc(Cl)cc1)N1CCCN(c2ccc(C(F)(F)F)cn2)CC1 | 8% | -6% | 0.5% | -2
O=C(COC(=O)c1cnccn1)Nc1ccccc1-c1ccccc1 | . | 6% | 1.0% | .

Three of the entries above in order of their number in miR-21 FLuc, falling:
Structure,miR-21 FLuc
CCc1[nH]nc(C(=O)N2CCCC(Nc3ccc(C(C)C)cc3)C2)c1C (stereo unspecified),12%
Cc1cc(C)cc(C(=O)NC(CC(N)=O)c2ccc(N3CCC(Cc4ccccc4)CC3)c([N+](=O)[O-])c2)c1 (stereo unspecified),0%
N#CCCn1cnc2c(=S)nc[nH]c21,-2%

Next results.
SMILES | miR-21 FLuc | Rango release inh | Rango-impB inh | GLA inh pH 4.5
Cc1ccc(N(C)C(=O)CC(C)S(=O)(=O)c2ccc3c(c2)NC(=O)CO3)cc1 (stereo unspecified) | -3%&0% | 0% | 2.0% | .
NC(=O)C1=C[C@H](c2ccc(C(F)(F)F)cc2)C[C@H](OCCCCO)O1 | -7% | -5% | -1.0% | 4
O=C(Nc1ccccc1)N1CCN(c2ncccn2)CC1 | -9% | 1% | 0.4% | -6
COc1ccc(C(=O)Nc2ccc3c(c2)nc(CCNC(=O)c2ccco2)n3C)cc1 | -27% | -23% | 0.8% | .
N#Cc1c(-c2cccnc2)cc(-c2ccccc2)nc1N | -3% | -6% | -2.5% | ?
Cc1c(NC2(c3nnnn3-c3ccc(Br)cc3)CCCCC2)c(=O)n(-c2ccccc2)n1C | -8% | -9% | -0.1% | 1
O=C(CCCSc1ccccc1)Nc1nc(-c2ccccn2)cs1 | -2% | -11% | 0.4% | 1
NS(=O)(=O)c1cc(C(=O)OCC(=O)N2CCOCC2)ccc1Cl | -12% | -10% | -0.1% | .
O=C(O)c1cccc(NC(=O)C2CC(=O)N(Cc3ccccc3)C2)c1 (stereo unspecified) | -2% | 2% | -1.6% | 13
Cc1cc(C)c(C)c(C(=O)C2OC(=O)C(C)(C)C(=O)C2(C)C)c1C (stereo unspecified) | -3% | 7% | -0.2% | 5

Only Rango release inh and GLA inh pH 4.5, for some of the entries so far:
compound	Rango release inh	GLA inh pH 4.5
NC(=O)C1=C[C@H](c2ccc(C(F)(F)F)cc2)C[C@H](OCCCCO)O1	-5%	4
Cc1cc(C)c(C)c(C(=O)C2OC(=O)C(C)(C)C(=O)C2(C)C)c1C (stereo unspecified)	7%	5
O=C(CCCSc1ccccc1)Nc1nc(-c2ccccn2)cs1	-11%	1
NS(=O)(=O)c1cc(C(=O)OCC(=O)N2CCOCC2)ccc1Cl	-10%	.
N#Cc1c(-c2cccnc2)cc(-c2ccccc2)nc1N	-6%	?

Not all compounds are listed; count on the stated rates, not on these rows.
